MT1-MMP act inh = MT1-MMP (human) activation inhibition. GFP/RFP ratio change, % at 20 µM. HT1080 RFP-PRO-GFP cells, GFP/RFP ratio fluorescence, overnight; percent of plate control window, DMSO zero. AID 651647. P50281. 360,000 compounds, 0.061% hits;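 active = GFP/RFP ratio change of at least 30% with cell ATP level not reduced by more than half and red fluorescence within 50% of control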; also: strong numbers were not always called active
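system = RFP-PRO-GFP reporter HT1080 cells | dosing = 20 µM single dose, 1% DMSO | timing = overnight cell settling, then overnight compound exposure, 37 °C, 5% CO2 | read-out basis = GFP/RFP fluorescence ratio | controls = DMSO and RFP-L50D-GFP cell wells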
HIV Env fusion = inhibitors of HIV Env-mediated cell fusion; AID 651610; HeLa-JRFL Env/CEM21 cell fusion, luciferase; inhibition, % at 12.3 µM; 360,000 compounds, 1.1% hits;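 active = mean replicate inhibition score of at least 50 and every replicate individually at or above 50; inconclusive = only one of the two criteria met; inactive = mean below 50 and not all replicates reaching 50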;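 also: 0% = plate neutral controls and 100% = maraviroc near 300 nM; one replicate is shown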
eIF4H inh = inhibitors of RNA binding by human eIF4H. Q15056. eIF4H fluorescence polarization binding assay. inhibition, % at 35 µM. 290,000 compounds, 0.94% hits. AID 2012;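 active = 50% or more with normal probe brightness, or confirmed in later tests; inconclusive = above 50% with abnormal brightness, or retests that disagree; inactive = below 50% or failed in later tests; about a fifth of its hits are not listed in these tables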;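 also: calls also rest on retests at 20 µM and on dose response follow-up; 0% = protein and probe with vehicle and 100% = probe without protein; strong numbers were not always called active; many hits fall short of the cut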
Yeast UUG start = yeast start codon fidelity modulation. S. cerevisiae UUG-firefly luciferase reporter, luminescence/redox ratio. activity score, % at 18.7 µM. 350,000 compounds, 0.13% hits. AID 602363;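 active = replicate mean at a twofold rise or more, about +100% in these data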;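 also: firefly luciferase made from a UUG start codon reports start codon fidelity; reporter light over untreated wells divided by growth signal over untreated wells; some hits fall short of that in this replicate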
PABP FP inh = PABP-poly(A) binding inhibition; P11940; PABP-poly(A) RNA binding, fluorescence polarization; inhibition, % at 35 µM; 290,000 compounds, 1% hits;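 active = 50% or more with normal probe brightness, or confirmed in later tests; inconclusive = above 50% with abnormal brightness, or retests that disagree; inactive = below 50% or failed in later tests; about a fifth of its hits are not listed in these tables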;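 also: calls also rest on retests at 20 µM and on dose response follow-up; controls were probe without protein and protein plus probe with vehicle; some compounds called inactive have numbers as strong as hits; many hits fall short of the cut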
Target sequence (P11940 whole entry, looked up): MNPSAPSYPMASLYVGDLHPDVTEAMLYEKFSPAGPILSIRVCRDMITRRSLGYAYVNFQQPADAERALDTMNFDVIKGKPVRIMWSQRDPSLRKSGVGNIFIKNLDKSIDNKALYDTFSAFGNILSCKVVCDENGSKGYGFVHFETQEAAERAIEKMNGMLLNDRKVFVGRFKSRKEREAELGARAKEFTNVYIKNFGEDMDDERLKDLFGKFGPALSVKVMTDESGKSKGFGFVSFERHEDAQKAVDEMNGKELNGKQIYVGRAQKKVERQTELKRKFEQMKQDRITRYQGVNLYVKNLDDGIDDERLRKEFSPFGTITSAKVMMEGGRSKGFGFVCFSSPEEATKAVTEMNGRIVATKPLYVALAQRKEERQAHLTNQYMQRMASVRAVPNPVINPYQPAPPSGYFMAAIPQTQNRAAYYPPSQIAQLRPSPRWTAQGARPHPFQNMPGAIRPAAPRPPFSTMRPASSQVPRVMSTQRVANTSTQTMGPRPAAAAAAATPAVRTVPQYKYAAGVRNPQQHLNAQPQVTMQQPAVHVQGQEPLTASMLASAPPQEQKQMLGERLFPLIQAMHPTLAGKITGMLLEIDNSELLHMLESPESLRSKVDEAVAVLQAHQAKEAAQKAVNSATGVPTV
Rce1 inhib = inhibitors of yeast Ras-converting enzyme | yeast membranes, quenched prenylated peptide cleavage fluorescence | 290,000 compounds, 0.27% hits | calls only | AID 2563;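 active = fall in fluorescence gain of 50% or more versus controls, with final raw signal at or below 3038400; inconclusive = same 50% fall but final raw signal above 3038400; inactive = fall in fluorescence gain under 50%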;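 also: plate controls were neutral control wells for no effect and wells lacking membranes for full effect; tested at 10 µM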
Target sequence (Q03530 whole entry, looked up): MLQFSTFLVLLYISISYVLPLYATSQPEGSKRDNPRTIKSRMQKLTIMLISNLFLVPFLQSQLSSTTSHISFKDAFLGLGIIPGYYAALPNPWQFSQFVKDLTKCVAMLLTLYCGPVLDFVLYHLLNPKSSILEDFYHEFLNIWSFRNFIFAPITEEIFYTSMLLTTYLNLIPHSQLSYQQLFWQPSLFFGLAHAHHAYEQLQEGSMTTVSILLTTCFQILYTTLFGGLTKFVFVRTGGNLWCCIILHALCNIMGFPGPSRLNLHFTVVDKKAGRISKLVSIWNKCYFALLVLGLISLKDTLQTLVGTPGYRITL
CSC inhib = blocks cancer stem cells. cancer stem cell-like cells viability, luminescence. inhibition, % at 7.5 µM. 300,000 compounds, 1.1% hits. AID 2717;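 active = mean at 75% or more and at least half the replicates too; inconclusive = mean and replicates disagree; tested in HMLE shEcad cells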;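 also: 0% = median of negative and 100% = median of positive control wells; the first replicate is given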
MT1-MMP act inh RFP = also measured in MT1-MMP act inh; calls as there; RFP signal change, %; measured here: RFP expression control read;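 0 = vehicle wells; hits needed this value within 50% of zero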
The depositor's hits bear a star; i = inactive; ? = inconclusive; nt = no result given; & = joins results of further samples. An unsorted share of the library; 3% or so of the library scored in one or more.

SMILES	MT1-MMP act inh	MT1-MMP act inh RFP	HIV Env fusion	eIF4H inh	Yeast UUG start	PABP FP inh	Rce1 inhib	CSC inhib
Cc1ccc(S(=O)(=O)N(CC(=O)NCc2ccco2)Cc2ccccc2F)cc1	-2	-7	nt	-3	4	-4	i	nt
NS(=O)(=O)c1ccc(CCNC(=O)NC2(C(F)(F)F)Oc3ccccc3O2)cc1	2	-7	-3	8	nt	0	i	18
S=C(Nc1ccccc1Oc1ccccc1)Nc1cccc(Cl)c1Cl	-3	1	-28	6	-5	2	i	31
CC(=O)Oc1cc2c(c3ccccc13)CCC2=O	2	3	-49	nt	-9	nt	nt	nt
Cc1ccc(CN2CCNC(=O)C2CC(=O)NC2CCCCCC2)cc1 (centres undefined)	1	3	12	-1	8	13	i	6
Cc1ccc(C(=O)OCC(=O)NCc2ccco2)cc1S(=O)(=O)N1CCOCC1	4	0	-8	nt	9	nt	i	-7
O=C(CCNC(=O)c1ccccc1Cl)Nc1ccc(S(=O)(=O)Nc2ncccn2)cc1	1	0	12	3	nt	-12	i	3
Cc1cc(=O)c(C(=O)O)nn1-c1ccccc1F	2	0	9	-6	-17	9	i	-2
CCN1C(=O)/C(=C2/SC(C)=C(C)N2CC)SC1=S	1	-9	-6	0	-18	10	i	1
O=C(NCc1cccnc1)c1cc(-c2ccc(Cl)cc2)oc1C(F)(F)F	6	-9	1	-9	nt	8	i	19
O=C(O)COc1c(Cl)cc(/C=C2\NC(=O)NC2=O)cc1Br	3	4	16	-9	nt	-10	i	-3
Cc1ccc(-c2nn(-c3ccccc3)cc2CN(Cc2ccccc2)C(=O)CCC(=O)O)o1	3	-2	-34	11	-1	9	i	-6
Cn1nc(C(=O)Nc2ccc(S(=O)(=O)N3CCOCC3)cc2)c2ccccc2c1=O	5	1	5	-14	nt	7	i	-7
C/C(=N\NC(=S)NC(C)C)c1ccccc1OC(F)F	1	-6	8	21	nt	1	i	-7
Cc1ccccc1-c1nc(C#N)c(NCc2ccco2)o1	0	7	-5	-2	nt	-6	nt	0
O=C(NNC(=S)Nc1ccc(F)cc1F)c1ccco1	1	2	-31	2	-10	-5	i	-7
CCCC(=O)NC(c1ccc(C)cc1)c1ccc2cccnc2c1O (centres undefined)	4	-8	nt	10	-10	13	i	110*
CCN(CC)S(=O)(=O)c1ccc(NC(=O)C(OC)c2ccccc2)cc1 (centres undefined)	2	5	-15	2	nt	-5	i	-17
COC(=O)c1sccc1NC(=S)N1CCC(C(N)=O)CC1	2	2	-9	-4	nt	-19	i	5
Cc1cccc(NC(=O)c2ccccc2NC(=O)C(C)(C)C)n1	-14	-6	-99	-4	-14	-9	i	-5
CN(C(=O)Nc1ccc(S(=O)(=O)N(C)C)cc1)C1CCCCC1	2	7	-20	2	-4	5	i	-20
O=C(Cc1ccccc1)Nc1ccccc1N1CCOCC1	5	2	nt	-9	-3	-4	i	-4
O=C1Nc2cc(Br)ccc2C1(O)c1ccccc1O (centres undefined)	0	7	-3	-1	8	2	i	9
NS(=O)(=O)c1ccc(NC(=O)Nc2cccc3ccccc23)cc1	3	4	-7	-2	-15	-2	i	-8
CN(C(=O)c1cccc(NC(=O)Cc2cccc(NC(=O)C3CCN(C(=O)C4CC4)CC3)c2)c1)C1CC1	1	7	20	nt	10	nt	nt	nt
CCn1cnc2scc(-c3ccc(OC)cc3)c2c1=O	-4	-2	10	-8	23	-6	i	-7
COc1ccc(C2=NOC(Cn3nc(-c4ccccc4)cc3C(=O)NCc3cccs3)C2)cc1 (centres undefined)	2	-5	-7	nt	-8	nt	nt	nt
O=C(Cn1c(=O)n(CC2CCCO2)c(=O)c2ccccc21)c1ccccc1 (centres undefined)	2	1	nt	4	-6	-2	i	6
NC(=NCCc1c[nH]c2ccccc12)NS(=O)(=O)c1ccc2ccccc2c1	1	-7	9	1	nt	15	i	3
O=[N+]([O-])c1ccccc1-c1cc(-c2cc(Cl)ccc2O)n[nH]1	1	-11	-3	-2	-19	-1	i	57
Nc1ccc2nc(N3CCOCC3)sc2c1	-4	3	-6	-7	nt	6	i	-5
OC(c1ccccc1)(c1nc(/C=C/c2ccccc2)cs1)C(F)(F)F (centres undefined)	-3	-8	18	nt	-21	nt	nt	nt
CC(=O)c1ccc(-c2ccc(C(=O)NCC3CCCO3)o2)cc1 (centres undefined)	0	1	-14	nt	-5	nt	?	3
CC(=O)N1CCN(CC(O)COc2ccc(OCc3ccccc3)cc2)CC1 (centres undefined)	1	-3	nt	2	-17	9	i	-6
FC(F)(F)C1=CC(c2ccc(Cl)cc2)=NCCN1	2	-2	nt	-12	-6	-3	i	2
O=C(Nc1ccc2c(c1)OCO2)C1CC(=O)N(c2cccc(Cl)c2)C1 (centres undefined)	2	2	5	-15	-16	-10	i	3
COCCCn1c2nc3ccccc3nc2c2c(=O)n(Cc3ccc(Cl)cc3)cnc21	3	-6	nt	-8	-2	-14	i	39
Cc1c(NC(=O)CSc2nc(-c3ccco3)cc(C(F)(F)F)n2)c(=O)n(-c2ccccc2)n1C	2	5	nt	-10	-7	2	i	-9
COc1ccc(-c2csc3ncnc(Oc4cccc5ccc(C)nc45)c23)cc1	-7	-7	13	-13	nt	-15	i	15
O=C(Cc1ccccc1Cl)N1CCOCC1	-2	3	-3	4	-12	3	i	2
O=C(NCc1cccs1)c1ccc2nc([C@@H]3O[C@H](CO)[C@H](O)[C@H](O)[C@H]3O)[nH]c2c1	-1	4	-5	nt	-21	nt	nt	nt
COCC(C)n1c(SCc2cc(C(=O)OC)c(C)o2)nc2ccccc2c1=O (centres undefined)	-2	-10	6	0	1	-1	i	-5
COC(=O)c1ccc(CSc2nnc(-c3ccncc3)o2)o1	2	7	nt	11	-11	23	i	-5
CCN1CCN(C(=O)CN2C(=O)COc3ccc(S(=O)(=O)N4CCOCC4)cc32)CC1	-3	6	-7	8	-20	3	i	nt
[O-][N+](=Cc1c(Cl)cccc1Cl)CC1(O)CCCCC1	-1	5	-4	nt	-21	nt	nt	nt
COc1ccc(-c2nc(C)c(C(C)=O)n2O)cc1[N+](=O)[O-]	4	3	2	2	-12	3	i	6
Cc1ccc2nc(C3CCN(CC(=O)Nc4ccc5c(c4)OCCO5)CC3)[nH]c2c1	-5	3	-1	14	-19	7	i	2
CCCS(=O)(=O)N1CCC(C(=O)NCCCOCC)CC1	5	1	nt	-8	-14	-5	i	-12
Cc1c(N2CCCC2)cc2c(c1NC(=O)c1ccccc1Cl)C(C)(C)CC2(C)C	1	1	-2	-9	-16	-3	i	12
CCC(=O)NNc1nc2c(C)cccc2s1	-4	1	13	-9	1	-7	i	-11
C/C(=N\NC(=O)c1cccs1)c1ccc2c(c1)OCO2	1	2	-34	-2	nt	-2	i	-10
COc1cc(C(=O)N2CCN(Cc3ccc4c(c3)OCO4)CC2)cc(OC)c1OC	1	1	-9	17	-5	10	i	2
Cc1cc([N+](=O)[O-])nn1CCCC(=O)Nc1ccc(Cl)cc1Cl	3	3	0	0	-12	-11	i	nt
CC(CC(=O)O)CC(=O)Nc1cc([N+](=O)[O-])ccc1O (centres undefined)	12	0	9	2	nt	-4	nt	-14
COc1ccc(N2CCN(S(=O)(=O)CCNC(=O)COc3ccccc3OC)CC2)cc1	1	-1	2	-8	14	5	i	-16
CN(Cc1ccccc1)C(=O)C1CCCN(Cc2cccc(Cl)c2)C1 (centres undefined)	2&-1	5&1	0&2	36	-1	4	i	4
COc1ccccc1C(=O)N1CCN=C1c1ccccc1	0	1	-139	1	-14	9	i	-14
COc1ccc(/C=N/Nc2c(Cl)cc(Cl)cc2Cl)cc1CN1CCOCC1	2	-1	-11	-5	-13	-8	i	18
Cc1nc(SCC(=O)c2c[nH]c3ccccc23)n[nH]1	-10	-7	-6	0	-16	3	i	-3
CCN(Cc1nc2cc(Cl)ccc2c(=O)[nH]1)C(=O)c1ccc(C)c(NC(=O)c2ccco2)c1	0	2	nt	nt	9	nt	nt	-5
(continued)
SMILES	MT1-MMP act inh	MT1-MMP act inh RFP	HIV Env fusion	eIF4H inh	Yeast UUG start	PABP FP inh	Rce1 inhib	CSC inhib
O=C(COC(=O)/C=C/c1ccc(C(F)(F)F)cc1)NCC1CCCCC1	0	-1	6	nt	nt	nt	i	nt
COc1cccc(Nc2nc(CN)cs2)n1	-4	5	57*	nt	-18	nt	nt	nt
N#C/C(=N\Nc1ccc(Cl)cc1)C(=N)N1CCCCC1	2	-1	nt	-3	nt	2	i	3
O=C(O)c1ccc2c(c1)CC(c1ccccc1)OC2=O (centres undefined)	7	3	nt	nt	-13	nt	i	3
CCc1ccc(Nc2c([N+](=O)[O-])c(=O)oc3ccccc23)cc1	0	-6	-5	7	nt	4	i	19
CCn1c(SCc2nc(CC(=O)Nc3ccccc3OC)no2)nnc1-c1cccs1	-3	6	5	-7	-3	-12	i	-6
O=C(COC(=O)CNC(=O)c1ccccc1Cl)NC1CC1	2	-4	7	nt	-5	nt	nt	-7
CCOC(=O)C1=C(c2ccccc2)N(C)C(=O)NC1c1ccc(O)c(OC)c1 (centres undefined)	0	-2	nt	0	-4	-2	i	-15
Cc1ccccc1-c1nc(CS(=O)(=O)CC(=O)NCCCN2CC(C)CC(C)C2)c(C)o1 (centres undefined)	5	2	-3	-14	26	-3	i	7
COc1ccccc1N1CCN(C2CCCN(Cc3cccc(O)c3)C2)CC1 (centres undefined)	-2	2	-97	3	17	10	i	-11
CNc1nc2c3ccccc3n(C(C)=O)c2s1	7	1	nt	-1	-23	4	i	-12
Cc1ccc2[nH]ccc(=O)c2c1	4	4	-6	-4	-11	0	i	-12
Cc1cc2nnc(SCC(=O)NCc3cccs3)n2c2ccccc12	-2	-11	30	-7	6	-8	i	1
COc1cccc(NC(=O)Cn2c(=O)n(-c3cc(OC)c(OC)c(OC)c3)c(=O)c3ccccc32)c1	4	6	-24	-6	-6	14	i	-7
CCN(CC)S(=O)(=O)c1ccc(S(=O)(=O)N2CCCC(C(=O)NC3CC3)C2)cc1 (centres undefined)	-4	-24	47	-2	-8	-12	i	nt

Structures above that have a cyano group:
SMILES	MT1-MMP act inh	MT1-MMP act inh RFP	HIV Env fusion	eIF4H inh	Yeast UUG start	PABP FP inh	Rce1 inhib	CSC inhib
Cc1ccccc1-c1nc(C#N)c(NCc2ccco2)o1	0	7	-5	-2	nt	-6	nt	0
N#C/C(=N\Nc1ccc(Cl)cc1)C(=N)N1CCCCC1	2	-1	nt	-3	nt	2	i	3

New compounds follow.
SMILES	MT1-MMP act inh	MT1-MMP act inh RFP	HIV Env fusion	eIF4H inh	Yeast UUG start	PABP FP inh	Rce1 inhib	CSC inhib
CCOC(=O)[C@H](CCc1ccccc1)N[C@@H](C)C(=O)N1CCC[C@@H]1C(=O)O	3	2	i	nt	-17	nt	nt	-14
CCc1nnc(NC(=O)CSc2nnc(-c3c[nH]c4ccccc34)n2CC)s1	3	-2	-90	-9	-11	-6	i	-8
Cc1nc(-c2coc3cc(C)c(N=O)c(O)c3/c2=N\N)cs1	3	0	-5	-2	-11	-3	i	-11
O=C(COC(=O)C1CCCN1C(=O)c1cccs1)c1ccccc1 (centres undefined)	1	2	nt	11	-7	-5	i	1
CSc1ccccc1NC(=O)CN1c2ccccc2CC1C (centres undefined)	-6	-11	6	-2	nt	5	i	22
O=C(c1cccc(Br)c1)c1coc2ccc(O)cc12	-1	-5	nt	nt	2	nt	nt	91*
